PrP UTR inh – inhibition of PrP 5' UTR reporter expression | cell-based PrP 5' UTR mRNA reporter, plate reader | AID 488862 | inhibition, % (concentration not given with the values) | 0.35% of 340,000 active;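 active = every replicate at 50% or more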;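 note: 0 = median of the neutral control wells; tested in H4 reporter cells; numbers are from one replicate; inactives centre near -14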
BJeLR viability – BJeLR cell viability loss | BJeLR (HRASV12) viability, CellTiter-Glo ATP luminescence, 48 h; reference of the scale not given here | AID 1554 | inhibition, % (no concentration beside the values) | 0.17% of 300,000 active;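 active = replicate mean above 50%; inconclusive = above 50% but judged a plate artefact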;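 note: 50 nL library stock added to about 25 µL; numbers are from one replicate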
Mtb hypoxia rep – Mtb hypoxia fluorescent reporter inhibition; M. tuberculosis hypoxia-regulated fluorescent reporter, fluorescence; fluorescence inhibition, % (test concentration not listed); 0.1% of 300,000 active; AID 1159583;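 active = 35 to 45% if threefold the growth effect, above 45% if 1.5-fold the growth effect; inactive = the rest, general growth blockers included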;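 note: wells of about 50 µL received 100 nL stock; 0% = vehicle wells and 100% = reference inhibitor wells; whole bacteria with a GFP reporter of the hypoxia response; strong numbers were not always called active; many hits fall short of the cut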
Bead autofluor – counter-screen for toxin protease inhibitors: compound fluorescence. fluorescence intensity (test concentration not listed). 3.1% of 360,000 active. compound autofluorescence counterscreen, microsphere flow cytometry; stronger effect = higher value. AID 624483;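 active = at least 3 SD above the mean of all compounds, about 16000 in these data; inconclusive = too few beads counted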;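 note: 100 nL of 1 mM stock went into each well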
ugtP null kill – growth inhibition of S. aureus ugtP deletion strain; AID 1259309; growth inhibition, % (no concentration beside the values); 0.54% of 330,000 active; S. aureus RN4220 ugtP deletion, OD600 growth, 16 h; some inactives read as strong as hits;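 active = z-score under -3 and OD600 up to 0.15 on both plates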;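 note: plate controls were untreated wells for no effect and antibiotic for full effect; wells of about 80 µL received 100 nL stock; the first replicate is given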
Sa RN4220 lethal – S. aureus RN4220 growth inhibition; OD600, 16 h; inhibition, % (no concentration beside the values); 0.33% of 330,000 active;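 active = z-score of -3 or lower and OD600 up to 0.18 on both plates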;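 note: plate controls were untreated cells for no effect and reference antibiotic for full effect; stock transfer was 100 nL into about 80 µL; one replicate is shown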
Mtb hypoxia rep growth – further read-out of Mtb hypoxia rep, marked with its call; growth inhibition, %; measured here: M. tuberculosis growth (absorbance);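 0% = vehicle and 100% = reference antibiotic; read after six days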
* hit, by the source's call; ? = inconclusive; nt = no result given; & = joins results of further samples. Hits appear at their usual frequency; about 4% have a hit in one of these screens.

SMILES	PrP UTR inh	BJeLR viability	Mtb hypoxia rep	Mtb hypoxia rep growth	Bead autofluor	ugtP null kill	Sa RN4220 lethal
Cc1cc(C)c(C(=O)CN2C(=O)NC3(CCCCC3)C2=O)cc1C	-19	2	3	-4	3343	12	0.9
CC(C)c1ccc(/C=C/C(=O)NC(=S)Nc2ccc(CN3CCOCC3)cc2)cc1	-16	-3	nt	nt	2143	nt	nt
Cc1cc(C)c(NC(=O)C2CCCO2)c(C)c1NC(=O)C1CCCO1 (stereo not drawn)	1	-9	9	0	2848	2	5.4
COc1cc(NS(=O)(=O)c2c(C)[nH]c(C)c2C(=O)N2CCCC2)cc(OC)c1OC	-6	-10	-3	6	4456	6	3.2
COc1ccccc1-n1c(SCC(=O)O)nc2sc3c(c2c1=O)CCC3	-32	9	16	-5	3614	9	3.0
CCCc1nc(NCCCOCC)c2nnn(Cc3ccccc3)c2n1	-23	2	9	6	3962	3	4.3
CC(C(=O)N1CCCCC1)N(C)CC(=O)Nc1ccc(Cl)cc1 (stereo not drawn)	-5	nt	14	16	4395	4	4.5
CN(C)c1ccc(N=Cc2c(O)n(CCC3=CCCCC3)c(=O)[nH]c2=O)cc1	-21	4	1	4	5750	-9	4.3
CCCC(C)NC(=O)c1ccc(C2SCC(=O)N2Cc2ccco2)cc1 (stereo not drawn)	-7	-1	4	7	2482	0	-5.4
CC1CCN(C(=O)/C(=C\c2cccs2)NC(=O)c2ccccc2)CC1	59*	nt	11	2	3984	3	2.5
COc1ccc(CCN2C(=O)c3cccc4c(C(=O)N5CCCCC5)ccc(c34)C2=O)cc1OC	-8	2	2	9	2565	-5	2.2
N=C1/C(=C/c2cccn2CCOc2ccccc2)C(=O)N=C2SC=C(c3ccccc3)N12	-23	23	-1	-1	8711	-9	-6.7
Cc1cc(Cl)ccc1OCC(=O)OCC(=O)N1CCC(C(N)=O)CC1	-19	nt	-5	7	?	2	2.3
CCOC1OC(C(=O)O)=CC(c2cn(C(C)=O)c3ccccc23)C1CCCO (stereo not drawn)	nt	nt	21&19	9&5	nt	5&-1	5.7&9.5
Cc1cc(S(=O)(=O)Nc2cccnc2)c(C)s1	-15	1	nt	nt	4703	6	-0.3
COC(=O)N/N=C(\C)c1ccc(OC(F)F)cc1	-34	-3	nt	nt	4438	nt	nt
CCCNC(=S)N1CCCC(c2nc3ccccc3[nH]2)C1 (stereo not drawn)	-12	5	6	7	4056	19	6.1
CCSc1nnc(NC(=O)c2cccc(OCc3c(C)noc3C)c2)s1	-19	-18	-1	1	6573	1	16
CCCCNC(=O)CCCN1C(=O)c2cccnc2Sc2ccccc21	-14	-11	3	3	4027	3	1.9
COc1cc(/C=N/NC(=O)c2ccc(C)nc2)cc([N+](=O)[O-])c1O	-28	3	nt	nt	4066	nt	nt
Cc1nn(C)c(C)c1S(=O)(=O)N1CCCC(C(=O)NC2CCCCCC2)C1 (stereo not drawn)	-11	13	nt	nt	5828	-1	1.1
CC(C)(C)c1[nH]nc2c1C(c1ccccc1OC(=O)N1CCOCC1)C(C#N)=C(N)O2 (stereo not drawn)	-38	-4	-3	4	12227	4	4.9
Cc1c(NC(=S)NC(=O)c2ccco2)cccc1-c1nc2ncccc2o1	-23	4	6	-4	2797	3	5.2
Cc1ccc(C)c(C(=O)CN2C(=O)NC3(CCC(C)CC3)C2=O)c1 (stereo not drawn)	-19	-2	-14	0	9572	-5	5.4
Cc1ccc(C(=O)NNC(=O)CCn2nnc3ccccc32)cc1	5	-2	-3	2	4175	-5	-0.2
Other entries follow.
SMILES	PrP UTR inh	BJeLR viability	Mtb hypoxia rep	Mtb hypoxia rep growth	Bead autofluor	ugtP null kill	Sa RN4220 lethal
COC(=O)C1=CN(C)C=C(C(=O)OC)C1c1ccccc1Cl	-4	23	nt	nt	3681	3	-0.5
CCN(CC)CCCNC(=S)N1CCN(c2nc(-c3ccccc3)cs2)CC1	28	5	3	0	4334	24	-8.8
C(=NN1CCCCCC1)c1c[nH]c2ccccc12	-34	nt	3	8	4116	2	0.7
Cc1ccc(S(=O)(=O)N(C)c2ccc(OCC(=O)OCC(=O)N(CC#N)c3ccccc3)cc2)cc1	-14	2	-3	0	4987	3	4.0
CC1(C)CC(=O)C(C=Nc2cccnc2/N=C/C2=C(O)CC(C)(C)CC2=O)=C(O)C1	-7	-1	nt	nt	2284	nt	nt
Cc1ccsc1C(=O)NNC(=O)Nc1ccc(Cl)c(Cl)c1	-12	2	nt	nt	3640	-6	-5.7
CC(C)(C)NC(=O)Cn1c(=O)c(=O)n(Cc2ccccc2)c2ccc(Cl)cc21	-19	-19	13	6	8964	3	0.8
CCOC(=O)c1cc(C)nn1-c1nc(Cl)cc(OC)n1	-23	-1	nt	nt	8784	nt	nt
CCN(Cc1ccccc1)C(=O)Cn1c(=O)n(-c2ccc(OC)cc2OC)c(=O)c2c(C)c(C)sc21	nt	14	-7	-16	4528	0	-3.2
CC1CN(C(=O)CCC(=O)NCc2ccccc2)c2cc(Cl)ccc2O1 (stereo not drawn)	-21	-6	6	1	6069	-5	-14
O=C(COc1ccc(S(=O)(=O)N2CCCCC2)cc1)NCc1ccccn1	-19	-11	10	-3	4472	4	3.4
COc1ccc(OC)c(C2=Nn3c(nnc3-c3cc(C)[nH]n3)SC2)c1	-18	7	-1	10	3560	7	3.0
Cc1cc(NC(=O)Cn2cc(C(F)(F)F)cc(Cl)c2=O)no1	-13	8	-1	5	21524*	2	3.0
CN(C)CCOC(=O)NC12CC3CC(CC(C3)C1)C2	-16	-6	4	6	?	6	1.7
Cc1ccc(S(=O)(=O)N2C[C@@H]3CCCC[C@@H]3[C@@H](C)[C@H]2c2cn(Cc3ccccc3)c3ccc(F)cc23)cc1	7	nt	-4	8	3575	3	-0.1
COC(CN(C)C(=O)c1ccc(CS(=O)(=O)c2ccccc2C)o1)OC	nt	-14	4	10	3493	16	4.5
COc1ccc(Cl)cc1NC(=S)Nc1ccccc1C	-27	0	4	7	4957	1	1.6
CCOc1ccc(N(CC(=O)NCc2ccccc2Cl)S(=O)(=O)c2c(C)[nH]c(=O)[nH]c2=O)cc1	-17	-5	8	1	5254	11	5.2
CN1CCN(S(=O)(=O)c2ccc(NC(=O)COc3ccccc3Cl)cc2)CC1	2	0	-6	-7	4329	-4	-0.4
COc1ccc(OC(C)C(=O)N2CCc3ccccc3C2)cc1 (stereo not drawn)	-12	-4	6	9	6648	3	0.3
CCOC(=O)c1c(C)noc1-c1ccc(Br)o1	-17	-9	5	4	3700	16	2.4
COc1ccc(-c2nc(-c3ccc(O)cc3O)cs2)cc1OC	-38	-9	2	-1	3395	21	13
O=C(NCC1CCCO1)c1cccc(NS(=O)(=O)c2ccc(Br)cc2)c1 (stereo not drawn)	-37	10	12	13	4091	7	3.3
CCC(Oc1ccccc1)C(=O)Nc1nc2c(s1)C(=O)CC(C)(C)C2 (stereo not drawn)	-11	4	7	12	3121	5	1.4
CC(=O)N1CCN(c2cccc(C)c2C)CC1	-5	-3	6	13	20849*	-6	3.4

12 entries from above, set out differently.
Fields – PrP UTR inh | BJeLR viability | Mtb hypoxia rep | Mtb hypoxia rep growth | Bead autofluor | ugtP null kill | Sa RN4220 lethal
COC(=O)C1=CN(C)C=C(C(=O)OC)C1c1ccccc1Cl
 : -4 | 23 | nt | nt | 3681 | 3 | -0.5
CCN(CC)CCCNC(=S)N1CCN(c2nc(-c3ccccc3)cs2)CC1
 : 28 | 5 | 3 | 0 | 4334 | 24 | -8.8
C(=NN1CCCCCC1)c1c[nH]c2ccccc12
 : -34 | nt | 3 | 8 | 4116 | 2 | 0.7
Cc1ccc(S(=O)(=O)N(C)c2ccc(OCC(=O)OCC(=O)N(CC#N)c3ccccc3)cc2)cc1
 : -14 | 2 | -3 | 0 | 4987 | 3 | 4.0
CC1(C)CC(=O)C(C=Nc2cccnc2/N=C/C2=C(O)CC(C)(C)CC2=O)=C(O)C1
 : -7 | -1 | nt | nt | 2284 | nt | nt
Cc1ccsc1C(=O)NNC(=O)Nc1ccc(Cl)c(Cl)c1
 : -12 | 2 | nt | nt | 3640 | -6 | -5.7
CC(C)(C)NC(=O)Cn1c(=O)c(=O)n(Cc2ccccc2)c2ccc(Cl)cc21
 : -19 | -19 | 13 | 6 | 8964 | 3 | 0.8
CCOC(=O)c1cc(C)nn1-c1nc(Cl)cc(OC)n1
 : -23 | -1 | nt | nt | 8784 | nt | nt
CCN(Cc1ccccc1)C(=O)Cn1c(=O)n(-c2ccc(OC)cc2OC)c(=O)c2c(C)c(C)sc21
 : nt | 14 | -7 | -16 | 4528 | 0 | -3.2
CC1CN(C(=O)CCC(=O)NCc2ccccc2)c2cc(Cl)ccc2O1 (stereo not drawn)
 : -21 | -6 | 6 | 1 | 6069 | -5 | -14
O=C(COc1ccc(S(=O)(=O)N2CCCCC2)cc1)NCc1ccccn1
 : -19 | -11 | 10 | -3 | 4472 | 4 | 3.4
COc1ccc(OC)c(C2=Nn3c(nnc3-c3cc(C)[nH]n3)SC2)c1
 : -18 | 7 | -1 | 10 | 3560 | 7 | 3.0

Next part:
SMILES	PrP UTR inh	BJeLR viability	Mtb hypoxia rep	Mtb hypoxia rep growth	Bead autofluor	ugtP null kill	Sa RN4220 lethal
CC(=O)c1ccc(NC(=O)c2ccc(NC(=O)c3ccco3)cc2)cc1	-2	3	-1	-7	5163	-2	6.3
CC(=O)c1cccc(NC(=O)Nc2cccs2)c1	-15	2	-6	-2	2300	-12	-0.2
Oc1ccc(-c2cccc(-c3ccc(O)cc3)c2)cc1	-20	-11	0	-8	3413	-23	1.6
Clc1cccc(-c2csc(Nc3cccnc3)n2)c1	-13	7	-3	-6	4338	-9	-1.3
CSc1cc(-c2ccccc2)n(Cc2ccccc2Cl)c(=O)c1C#N	-26	51*	nt	nt	2112	15	-0.7
COC(=O)C1=C(C)N(Cc2ccccc2)C(=O)NC1c1cccs1 (stereo not drawn)	nt	nt	7	9	nt	-2	4.5
COc1ccc(C(=O)NC(C)c2nnc(SCC(=O)NC3CCCC3)n2C)cc1 (stereo not drawn)	-3	-4	1	-17	6421	6	0.0
CCN(CC(=O)NCc1cccs1)c1ccc(S(=O)(=O)N2CCN(C)CC2)cn1	-21	-8	3	-4	5302	9	2.1
O=C(C1CCCO1)N1CCN(C(=S)Nc2ccccc2F)CC1 (stereo not drawn)	-5	-1	10	3	2477	5	3.7
COc1ccccc1N1CCN(/N=C/c2ccc(OC)c(OC)c2OC)CC1	-16	7	nt	nt	3434	nt	nt
Cc1cc(Br)cc(Cl)c1OCC(=O)NC(=O)NCc1ccccc1	-11	5	3	6	2310	7	1.8
CCCCS(=O)(=O)N1CCCC(C(=O)N2CCOCC2)C1 (stereo not drawn)	-18	7	11	12	3417	11	8.4
CC(C)Nc1nc(NC(C)C)nc(NS(=O)(=O)c2ccc(N)cc2)n1	-10	-3	9	2	?	13	5.8
Cn1nccc1C(=O)Nc1sc2c(c1C(N)=O)CCCC2	-50	3	14	0	1959	5	4.6
COc1cccc(CCNC(=O)C2CCC(=O)N(C3CC3)C2)c1OC (stereo not drawn)	-4	-1	6	7	4883	6	4.5
COc1ccc(N=C2SCC(=O)N2CCc2ccc(OC)c(OC)c2)cc1	-11	-13	6	14	6092	-17	0.2
Cc1oc(-c2ccccc2F)nc1CS(=O)CC(=O)NCc1cccs1 (stereo not drawn)	-18	3	0	10	6152	-3	-15
NC(=O)CS(=O)(=O)c1nc2ccccc2n1Cc1ccccn1	-17	12	10	8	4230	7	-0.8
CCCN(C(=O)COc1ccc(Cl)cc1Cl)c1c(N)n(Cc2ccccc2)c(=O)[nH]c1=O	-1	-4	-8	-6	4233	-1	2.5
COc1ccc(-c2noc(CCC(=O)N3CCN(c4ccc(Br)cc4)CC3)n2)cc1	-28	nt	-3	4	4066	-1	2.1
CCOC(=O)Nc1ccc2c(COC(=O)CNS(=O)(=O)c3cccc(Br)c3)cc(=O)oc2c1	-17	-6	6	2	2470	-3	4.8
O=C(NC(=S)NCc1ccc2c(c1)OCO2)c1ccccc1	-14	9	4	0	10017	6	-5.0
O=C(O)c1ccccc1N/C=C\[N+](=O)[O-]	-4	-1	3	1	4613	1	0.5
CN(C)c1ccnc(SCc2ccccc2Cl)c1C#N	-40	13	7	7	22367*	29	5.6

Random excerpt: 2 entries already listed.
SMILES	PrP UTR inh	BJeLR viability	Mtb hypoxia rep	Mtb hypoxia rep growth	Bead autofluor	ugtP null kill	Sa RN4220 lethal
COc1cccc(CCNC(=O)C2CCC(=O)N(C3CC3)C2)c1OC (stereo not drawn)	-4	-1	6	7	4883	6	4.5
NC(=O)CS(=O)(=O)c1nc2ccccc2n1Cc1ccccn1	-17	12	10	8	4230	7	-0.8

Bioassay records as filed in PubChem BioAssay.
